PKD1 inh – inhibitors of human PKD1 kinase; PKD1 kinase fluorescence polarization assay; inhibition, %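 (about 10 µM by stock and volumes)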; AID 797; hit rate 0.056% among 200,000;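 active = inhibition of 50% or more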;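 note: controls were vehicle for no effect and a reference inhibitor for full effect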
Target sequence (Q15139 whole entry, looked up): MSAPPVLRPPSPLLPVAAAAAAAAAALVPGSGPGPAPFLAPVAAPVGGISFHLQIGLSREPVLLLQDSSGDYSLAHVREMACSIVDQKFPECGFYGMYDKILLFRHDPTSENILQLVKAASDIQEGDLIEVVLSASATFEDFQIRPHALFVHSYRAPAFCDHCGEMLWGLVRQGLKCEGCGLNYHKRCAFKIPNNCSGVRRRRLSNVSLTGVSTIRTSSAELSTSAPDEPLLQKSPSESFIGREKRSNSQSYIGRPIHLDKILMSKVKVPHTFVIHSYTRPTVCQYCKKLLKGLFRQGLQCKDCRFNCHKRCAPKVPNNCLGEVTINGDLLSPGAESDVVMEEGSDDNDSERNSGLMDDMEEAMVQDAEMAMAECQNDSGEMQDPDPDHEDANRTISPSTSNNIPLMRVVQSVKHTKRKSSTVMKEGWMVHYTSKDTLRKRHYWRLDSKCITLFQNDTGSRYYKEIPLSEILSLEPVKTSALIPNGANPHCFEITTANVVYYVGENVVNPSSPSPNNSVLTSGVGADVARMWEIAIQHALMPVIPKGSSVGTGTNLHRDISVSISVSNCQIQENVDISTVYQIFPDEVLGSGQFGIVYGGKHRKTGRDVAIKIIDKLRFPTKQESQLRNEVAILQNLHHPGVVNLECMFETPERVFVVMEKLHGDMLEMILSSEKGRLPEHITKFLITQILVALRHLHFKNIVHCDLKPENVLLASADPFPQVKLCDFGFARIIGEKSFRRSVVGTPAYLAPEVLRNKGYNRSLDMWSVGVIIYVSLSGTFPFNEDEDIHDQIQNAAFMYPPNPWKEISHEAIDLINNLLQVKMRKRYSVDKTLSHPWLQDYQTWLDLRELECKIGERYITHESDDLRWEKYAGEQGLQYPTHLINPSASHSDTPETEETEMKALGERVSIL
HSV replic up – increases HSV replication in cells; hit rate 0.005% among 220,000; AID 1956; maximum fold increase; HSV replication augmentation in cells, fold increase;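 active = peak rise of 1.5-fold or more in the series; tested in PC3 cells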;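 note: first round at 10 µM; read as green reporter fluorescence; hits show the peak of a series up to 25 µM; 1 = signal of infected wells without compound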
GALR2 ag – agonists of human galanin receptor 2 (GALR2). GALR2-expressing cells, agonist activation read-out. hit rate 0.48% among 140,000. activation, %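 (tested at 5 µM)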;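 active = above mean plus 3 SD of all compounds, about 5% in these data, not always enough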;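 note: 0% = vehicle buffer wells and 100% = reference agonist at full effect; tested in CHO reporter cells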
RGS16-Gao – regulators of human RGS16-Galphao interaction; O15492+P09471; bead-based flow cytometry RGS16-Galphao binding, fluorescence; actives lie on both sides; binding response (% of control), % at 10 µM; hit rate 0.38% among 220,000; AID 1441;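 active = below 25% or above 175%, edge rows of some plates excepted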;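 note: Galphao activated by GDP with aluminum fluoride before binding; 100% = wells without compound and 0% = beads without RGS; some results beyond the cut were filed as inactive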
Insulin prom inh – TRM-6 insulin promoter activity inhibition | inhibition, % at 2 µM | TRM-6 cells (human fetal islet line), insulin promoter-eGFP reporter, imaging; reporter expression induced with tamoxifen | AID 1273 | hit rate 0.9% among 130,000;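 active = inhibition above the mean plus 3 SD, with well images judged a real hit on visual review, cut at about 60% in these data, passing the limit was not always enough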
Insulin prom inh cell count – further read-out of Insulin prom inh, marked with its call; normalized cell count, %; measured here: cell count, toxicity; reference of the scale not given here;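 cells exposed to compound for 48 h; stained nuclei by imaging scaled within each plate; lower means fewer cells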
HSV replic up primary fold – recorded beside HSV replic up, whose call it bears; fold increase; compound at 10 µM; measured here: primary screen fold increase 10 uM; tested in PC3 cells;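 GFP signal in the first replicate; 1 = infected wells without compound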
* = called active by the depositor; i = inactive; · = not tested or not shown. Random draw from the library; 1.2% or so of the library scored in one or more.

SMILES	PKD1 inh	HSV replic up	HSV replic up primary fold	GALR2 ag	RGS16-Gao	Insulin prom inh	Insulin prom inh cell count
C=CCn1c(SCC(=O)Nc2nc(C)cs2)nnc1C(C)NC(=O)c1ccccc1Cl (stereo not drawn)	1	i	0.87	-1.7	91	-10	122
O=C1C(c2ccnc3ccccc23)=C(O)c2ccccc21	11	i	0.94	-0.7	106	-130	69
C#CCOCCOCCOCCNc1nc(N2CCN(C(=O)[C@H](Cc3ccc(O)cc3)n3cc([C@@H](N)C(C)CC)nn3)CC2)nc(N2CCN(C(=O)[C@H](Cc3cc4ccccc4[nH]3)n3cc([C@@H](N)CC(C)C)nn3)CC2)n1 (stereo partly drawn)	-6	i	0.78	·	108	·	·
CC(=O)NS(=O)(=O)c1ccc(NC(=S)NC(=O)COc2ccccc2C)cc1	0	i	1	-1.3	99	43	121
Cc1ccc(S(=O)(=O)Oc2ccc(C3C4=C(CCCC4=O)N(CCC(=O)O)C4=C3C(=O)CCC4)cc2Cl)cc1	13	i	1	6.6*	104	-47	91
COc1ccc(Cc2nc(C(=O)Nc3ccccc3)cs2)cc1	-7	·	·	-2.8	100	-21	122
O=C(O)CCCn1c(=O)[nH]c2ccccc2c1=O	0	i	0.87	-0.3	101	·	·
Cn1c(SCC(=O)C(C)(C)C)nnc1-c1ccc(F)cc1	-6	i	0.87	·	102	·	·
O=P(/C(=N/O)Sc1ccccc1)(N1CCOCC1)N1CCOCC1	-5	i	0.87	-0.2	130	·	·
O=C(CSc1nnc(Cc2cccs2)n1-c1ccc(Cl)cc1)NCc1ccc2c(c1)OCO2	-5	i	1	-0.7	100	38	80
COc1ccc(C(=O)N2CCn3c(C)ccc3C2C)cc1 (stereo not drawn)	10	i	1.1	·	93	·	·
Cc1c(Cc2ccccc2)c(=O)oc2cc(OC(=O)c3ccccc3)ccc12	6	i	1	-1.9	99	-54	117
COc1ccc(C(=O)NC2(C(F)(F)F)NC(=O)N(CCCc3ccccc3)C2=O)cc1OC (stereo not drawn)	3	i	0.9	0.1	110	50	137
CCN(CC)C(=O)CSc1nnc([C@H](CCSC)NC(=O)OC(C)(C)C)o1	15	i	0.86	-1.9	100	·	·
COc1ccccc1NS(=O)(=O)c1cc(NC(C)=O)ccc1N1CCCCC1	-1	i	0.78	·	96	·	·

Whole records from above:
Cn1c(SCC(=O)C(C)(C)C)nnc1-c1ccc(F)cc1 reads PKD1 inh: -6; HSV replic up: i; HSV replic up primary fold: 0.87; GALR2 ag: ·; RGS16-Gao: 102; Insulin prom inh: ·; Insulin prom inh cell count: ·
Cc1ccc(S(=O)(=O)Oc2ccc(C3C4=C(CCCC4=O)N(CCC(=O)O)C4=C3C(=O)CCC4)cc2Cl)cc1 reads PKD1 inh: 13; HSV replic up: i; HSV replic up primary fold: 1; GALR2 ag: 6.6*; RGS16-Gao: 104; Insulin prom inh: -47; Insulin prom inh cell count: 91

(more compounds)
SMILES	PKD1 inh	HSV replic up	HSV replic up primary fold	GALR2 ag	RGS16-Gao	Insulin prom inh	Insulin prom inh cell count
CCn1c(CSCc2c(Cl)cccc2Cl)n[nH]c1=S	-3	i	1.1	·	46	·	·
CCOC(=O)c1sc(=NC(=O)c2cccc(OC)c2)n(C)c1C	-2	i	1.1	-0.8	98	·	·
COc1ccc(-c2nc(NC(=O)Cn3ccc(C(F)(F)F)n3)sc2C)cc1	4	i	0.92	-1.0	102	12	132
Cn1c(C(=O)NCc2ccco2)cc2c(=O)[nH]c3ccccc3c21	-2	i	0.91	-0.3	104	19	91
Cc1ccc(S(=O)(=O)CCCS(=O)(=O)c2ccc(C)cc2)cc1	-1	i	0.73	-1.9	108	13	94
Cc1ccc(-n2ncc3c(=O)n(CC(=O)NCc4ccco4)cnc32)cc1	-8	i	0.98	-1.7	99	29	83
COc1cccc(C(=O)Nc2cccnc2)c1	2	·	·	-0.9	94	0	162
O=c1nc(N/N=C/c2c[nH]c3ccccc23)cn[nH]1	·	i	0.87	·	101	·	·
Cc1ccc(NC(=O)c2noc(C(C)C)c2[N+](=O)[O-])cc1	-11	i	0.91	·	106	·	·
COC(CNc1cc(=O)oc2ccccc12)OC	13	i	0.91	-0.2	107	-23	137
CC(=O)Nc1ccccc1C(=O)N1CCN(Cc2ccccc2)CC1	-7	·	·	·	105	0	83
COC(=O)Cn1nnc(-c2cccc(OC)c2)n1	-6	i	0.88	-1.3	105	·	·
COc1ccc(CCNC(=O)c2cc3sc(Cl)cc3n2C)cc1OC	8	i	0.79	-1.0	111	·	·
CCc1ccccc1NC(=O)Cn1nnc(-c2cccnc2)n1	1	i	0.98	-3.1	108	36	72
N#C/C(=C\c1cccs1)c1nc2ccccc2[nH]1	0	i	1.1	-1.1	108	85*	151*

Shown field by field: part of the list above
> COc1ccc(-c2nc(NC(=O)Cn3ccc(C(F)(F)F)n3)sc2C)cc1
  PKD1 inh: 4; HSV replic up: i; HSV replic up primary fold: 0.92; GALR2 ag: -1.0; RGS16-Gao: 102; Insulin prom inh: 12; Insulin prom inh cell count: 132

> Cn1c(C(=O)NCc2ccco2)cc2c(=O)[nH]c3ccccc3c21
  PKD1 inh: -2; HSV replic up: i; HSV replic up primary fold: 0.91; GALR2 ag: -0.3; RGS16-Gao: 104; Insulin prom inh: 19; Insulin prom inh cell count: 91

> Cc1ccc(S(=O)(=O)CCCS(=O)(=O)c2ccc(C)cc2)cc1
  PKD1 inh: -1; HSV replic up: i; HSV replic up primary fold: 0.73; GALR2 ag: -1.9; RGS16-Gao: 108; Insulin prom inh: 13; Insulin prom inh cell count: 94

(list continues)
SMILES	PKD1 inh	HSV replic up	HSV replic up primary fold	GALR2 ag	RGS16-Gao	Insulin prom inh	Insulin prom inh cell count
O=S(=O)(c1ccc(-c2ccon2)s1)N1CCOCC1	·	i	1.1	·	97	·	·
CCn1c(C)nc2cc(S(=O)(=O)Nc3ccc(C)cc3)ccc21	9	i	1	·	99	·	·
COc1ccc(NC(=S)Nc2ncccc2C)cc1OC	-4	i	0.75	·	112	·	·
COCC(=O)NCCNc1nc2ccc(C)cc2cc1C	-7	i	0.85	-3.8	99	7	52
COc1ccccc1N1CCN(C(=O)CSc2nnc(NC(=O)c3ccco3)s2)CC1	1	i	1	-1.6	67	-23	63
CCOC(=O)c1c(-n2cnnn2)sc(C)c1C	4	i	0.81	1.4	95	-157	73
CCOC(=O)N1CCN(C2OC(=O)c3ccccc32)CC1 (stereo not drawn)	-7	·	·	-1.0	94	-459	53
C=CCn1c(O)c(CN2CCOCC2)c(C)c(C#N)c1=O	8	i	1.1	-3.5	·	54	104
Cc1cccc(OCc2nnc(SCC(=O)Nc3ccc(C)c(C)c3)o2)c1	-3	i	1.4	-2.0	99	53	121
O=C(CNS(=O)(=O)c1ccc(Br)cc1)N1CCOCC1	-2	i	0.67	-2.5	100	-47	152
Cc1ccc(NC(=O)Cc2cn(C)c3ccccc23)cc1F	-4	i	0.96	·	108	-9	138
COc1ccc(CCNC(=S)NC(=O)c2cc(OC)c(OC)c(OC)c2)cc1OC	·	i	1	·	105	·	·
Nc1nc(-c2ccccc2)c(N=Nc2cccnc2)s1	-3	i	0.74	·	100	·	·

Reformatted: results already given.
| Compound | PKD1 inh | HSV replic up | HSV replic up primary fold | GALR2 ag | RGS16-Gao | Insulin prom inh | Insulin prom inh cell count |
| --- | --- | --- | --- | --- | --- | --- | --- |
| COCC(=O)NCCNc1nc2ccc(C)cc2cc1C | -7 | i | 0.85 | -3.8 | 99 | 7 | 52 |
| COc1ccccc1N1CCN(C(=O)CSc2nnc(NC(=O)c3ccco3)s2)CC1 | 1 | i | 1 | -1.6 | 67 | -23 | 63 |
| CCOC(=O)c1c(-n2cnnn2)sc(C)c1C | 4 | i | 0.81 | 1.4 | 95 | -157 | 73 |
| CCOC(=O)N1CCN(C2OC(=O)c3ccccc32)CC1 (stereo not drawn) | -7 | · | · | -1.0 | 94 | -459 | 53 |
